Screens (PubChem BioAssay)
HIV Env fusion – inhibitors of HIV Env-mediated cell fusion; HeLa-JRFL Env/CEM21 cell fusion, luciferase; inhibition, % at 12.3 µM; 1.1% of 360,000 active;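 active = mean replicate inhibition score of at least 50 and every replicate individually at or above 50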;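 also: 0% = plate neutral controls and 100% = maraviroc near 300 nM; one replicate is shown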
Yeast UUG start – alters start codon recognition fidelity in yeast; S. cerevisiae UUG-firefly luciferase reporter, luminescence/redox ratio; activity score, % at 18.7 µM; 0.13% of 350,000 active; AID 602363;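 active = replicate mean at a twofold rise or more, about +100% in these data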;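 also: firefly luciferase made from a UUG start codon reports start codon fidelity; reporter light over untreated wells divided by growth signal over untreated wells; some hits fall short of that in this replicate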
Numbers without * were called inactive; & = joins results of further samples; [ ] = another dose, or the depositor's remark. Some of the compounds tested (hit frequency here may not be typical).

Second line of a record: HIV Env fusion, Yeast UUG start
COc1ccc(NC(=O)Nc2ccc3c(c2)CC(=O)N([C@@H](C)CO)C[C@@H](C)[C@H](CN(C)CC2CCCCC2)O3)cc1
→ -1[16.7 µM], 1
O=C(C[C@H]1C[C@@H]2c3cc(NC(=O)C4CCC4)ccc3O[C@@H]2[C@@H](CO)O1)NCc1ccccc1F
→ -6[16.7 µM], 13
O=C(NCC[C@@H]1CC[C@@H](NC(=O)c2cccnc2)[C@H](CO)O1)Nc1ccc(Cl)cc1
→ 3[16.7 µM], -14
CCC(=O)N(C)C[C@H]1Oc2cc(-c3ccc(F)cc3)ccc2S(=O)(=O)N([C@H](C)CO)C[C@H]1C
→ -17[16.7 µM], 11
C[C@H]1CCCCO[C@H](CN(C)C(=O)CCC(F)(F)F)[C@@H](C)CN([C@@H](C)CO)C(=O)c2cc(NC(=O)c3ccccc3)ccc2O1
→ 51[16.7 µM], 30
CC(C)NC(=O)N[C@H]1C=C[C@@H](CC(=O)N2CCCCC2)O[C@H]1CO
→ 15[16.7 µM], -6
C[C@@H]1CCCCO[C@@H](CN(C)S(=O)(=O)c2ccc(Cl)cc2)[C@@H](C)CN([C@@H](C)CO)C(=O)c2cc(NC(=O)Nc3ccc(F)cc3)ccc2O1
→ -70[16.7 µM], 28
C[C@@H]1CCCCO[C@H](CN(C)C(=O)Nc2cccc3ccccc23)[C@@H](C)CN([C@H](C)CO)C(=O)c2cc(NC(=O)Nc3cccc4ccccc34)ccc2O1
→ -17[16.7 µM], -9
C[C@H](O)C#Cc1cnc2c(c1)C(=O)N([C@@H](C)CO)C[C@H](C)[C@H](CN(C)C(=O)c1ccccc1F)O2
→ -7[16.7 µM], 9
C[C@@H]1CN([C@H](C)CO)S(=O)(=O)c2ccc(-c3ccc(C(=O)N(C)C)cc3)cc2O[C@H]1CN(C)C
→ 8[16.7 µM], 1
C[C@@H]1CN([C@@H](C)CO)C(=O)c2cc(NC(=O)NC3CCCCC3)ccc2O[C@@H](C)CCCCO[C@H]1CN(C)C(=O)c1ccncc1
→ -6[16.7 µM], 2
CC(C)C(=O)Nc1ccc2c(c1)C(=O)N(C)[C@H]1CC[C@H](CC(=O)N[C@H](C)c3ccccc3)O[C@H]1CO2
→ 9[16.7 µM], -3
COc1ccc(S(=O)(=O)N(C)C[C@@H]2OCCCC[C@@H](C)Oc3ccc(NC(=O)NC(C)C)cc3C(=O)N([C@@H](C)CO)C[C@H]2C)cc1
→ 14[16.7 µM], 10
CCCC(=O)Nc1ccc2c(c1)C(=O)N(C)[C@@H]1CC[C@@H](CC(=O)NCCc3ccncc3)O[C@H]1CO2
→ 5[16.7 µM], -12
O=C(C[C@@H]1CC[C@H](NC(=O)Nc2ccccc2)[C@H](CO)O1)NCc1ccccn1
→ -10[16.7 µM], -14
COc1ccc(S(=O)(=O)N(C)C[C@H]2OCCCC[C@@H](C)Oc3ccc(NC(=O)Nc4c(C)noc4C)cc3C(=O)N([C@H](C)CO)C[C@@H]2C)cc1
→ 8[16.7 µM], 5
COc1ccc(NC(=O)N(C)C[C@H]2Oc3c(NC(=O)Nc4ccc5c(c4)OCO5)cccc3C(=O)N([C@@H](C)CO)C[C@@H]2C)cc1
→ 2[16.7 µM], -8
CO[C@@H]1CN(C)C(=O)c2cc(NS(C)(=O)=O)ccc2OC[C@H](C)N(C(=O)C2CCC2)C[C@@H]1C
→ -4[16.7 µM], -14
CC(=O)N(C)C[C@H]1Oc2cc(-c3ccccc3C)ccc2S(=O)(=O)N([C@@H](C)CO)C[C@@H]1C
→ -24[16.7 µM], 1
C[C@H]1CCCCO[C@H](CN(C)C(=O)Cc2ccccc2)[C@@H](C)CN([C@@H](C)CO)C(=O)c2cc(NS(=O)(=O)c3ccccc3)ccc2O1
→ -17[16.7 µM], 29
C[C@@H]1CN([C@@H](C)CO)S(=O)(=O)c2ccc(C#CCN(C)C)cc2O[C@@H]1CN(C)Cc1ccccc1
→ -23[16.7 µM], 3
C[C@@H]1CN([C@@H](C)CO)S(=O)(=O)c2ccc(C#Cc3ccccn3)cc2O[C@@H]1CN(C)Cc1ccccc1
→ -11[16.7 µM], 1
C[C@@H]1CCCCO[C@@H](CN(C)C(=O)CCC(F)(F)F)[C@@H](C)CN([C@H](C)CO)C(=O)c2cc(NS(=O)(=O)c3ccccc3)ccc2O1
→ -14[16.7 µM], -3
CCC(=O)N(C)C[C@@H]1Oc2cc(C#Cc3ccncc3)ccc2S(=O)(=O)N([C@@H](C)CO)C[C@@H]1C
→ -20[16.7 µM], 10
C[C@@H]1CN([C@H](C)CO)S(=O)(=O)c2ccc(-c3ccccc3)cc2O[C@@H]1CN(C)C(=O)CN(C)C
→ 15[16.7 µM], 8
C[C@H](CO)N1C[C@H](C)[C@@H](CN(C)C)Oc2ncc(-c3ccccc3)cc2C1=O
→ -14[16.7 µM], -4
Cc1noc(C)c1NC(=O)Nc1ccc2c(c1)C(=O)N([C@@H](C)CO)C[C@@H](C)[C@H](CN(C)S(=O)(=O)c1ccc(Cl)cc1)O2
→ 25[16.7 µM], 5
COc1ccccc1C(=O)Nc1ccc2c(c1)C(=O)N(C)C[C@@H](OC)[C@@H](C)CN(C(C)=O)[C@H](C)CO2
→ -1[16.7 µM], -4
COc1ccc(CN(C)C[C@H]2Oc3ccc(NS(=O)(=O)c4ccc(OC)cc4)cc3CC(=O)N([C@@H](C)CO)C[C@H]2C)cc1
→ 0[16.7 µM], -13
CO[C@@H]1CN(C)C(=O)c2cc(NS(=O)(=O)c3ccccc3Cl)ccc2OC[C@H](C)NC[C@H]1C
→ 11[16.7 µM], 1
COc1ccc(CN(C)C[C@@H]2OCCCC[C@@H](C)Oc3ccc(NC(=O)Nc4ccc5c(c4)OCO5)cc3C(=O)N([C@H](C)CO)C[C@H]2C)cc1
→ 23[16.7 µM], 1
Cc1noc(C)c1S(=O)(=O)N(C)C[C@H]1OCCCC[C@H](C)Oc2ccc(NC(=O)CCC(F)(F)F)cc2C(=O)N([C@@H](C)CO)C[C@H]1C
→ -12[16.7 µM], -9
C[C@H](CO)N1C[C@H](C)[C@@H](CN(C)Cc2ccccn2)Oc2ncc(C#CCC3CCCC3)cc2C1=O
→ -5[16.7 µM], -5
C[C@@H]1CN([C@@H](C)CO)C(=O)c2cccc(NC(=O)Nc3ccccc3)c2O[C@H]1CN(C)S(=O)(=O)c1ccccc1
→ 2[16.7 µM], 4
C[C@H]1CCCCO[C@H](CN(C)C(=O)Nc2ccccc2)[C@@H](C)CN([C@@H](C)CO)C(=O)c2cc(NS(=O)(=O)c3ccc(Cl)cc3)ccc2O1
→ -22[16.7 µM], -5
COc1ccc(-c2cnc3c(c2)C(=O)N([C@H](C)CO)C[C@@H](C)[C@@H](CN(C)Cc2ccccn2)O3)cc1
→ -7[16.7 µM], -24
C[C@@H]1CN([C@H](C)CO)C(=O)c2cc(NS(C)(=O)=O)ccc2O[C@@H](C)CCCCO[C@@H]1CN(C)Cc1ccc2c(c1)OCO2
→ 21[16.7 µM], 5
CN1C(=O)c2cc(NC(=O)c3cccc(F)c3)ccc2OC[C@H]2O[C@@H](CC(=O)O)CC[C@H]21
→ -20[16.7 µM], 3
Cc1noc(C)c1NC(=O)N(C)C[C@H]1Oc2c(NS(=O)(=O)c3ccc(F)cc3)cccc2C(=O)N([C@H](C)CO)C[C@H]1C
→ -2[16.7 µM], -3
C[C@H]1CN([C@@H](C)CO)C(=O)c2cc(NC(=O)c3ccncc3)ccc2O[C@H]1CN(C)CC1CCCCC1
→ 7[16.7 µM], -6
COc1ccc(NC(=O)Nc2ccc3c(c2)C(=O)N([C@@H](C)CO)C[C@H](C)[C@H](CN(C)C(=O)Nc2ccccc2)O3)cc1
→ 6[16.7 µM], 6
O=C(C[C@H]1CC[C@H](NC(=O)Nc2ccc(F)cc2)[C@@H](CO)O1)NCc1cccc(F)c1
→ 9[16.7 µM], -13
C[C@@H]1CN([C@@H](C)CO)S(=O)(=O)c2ccc(C#Cc3ccccc3F)cc2O[C@H]1CN(C)C
→ 29[16.7 µM], -2
C[C@@H]1CCCCO[C@@H](CN(C)S(C)(=O)=O)[C@@H](C)CN([C@@H](C)CO)C(=O)c2cc(NS(C)(=O)=O)ccc2O1
→ 5[16.7 µM], 13
Cc1noc(C)c1NC(=O)Nc1ccc2c(c1)C(=O)N([C@H](C)CO)C[C@H](C)[C@@H](CN(C)C(=O)C1CCCCC1)OCCCC[C@H](C)O2
→ 11[16.7 µM], 4
O=C(C[C@H]1C[C@@H]2c3cc(NC(=O)Nc4ccc(F)cc4)ccc3O[C@@H]2[C@H](CO)O1)NC1CCCC1
→ 15[16.7 µM], 5
C[C@@H]1CN([C@@H](C)CO)C(=O)c2cc(-c3cncnc3)cnc2O[C@@H]1CN(C)Cc1ccc(F)cc1
→ -18[16.7 µM], -2
COc1ccc(S(=O)(=O)N2C[C@H](O)COC[C@@H]3O[C@@H](CC(=O)NCc4ccc(Cl)c(Cl)c4)CC[C@H]32)cc1
→ 6[16.7 µM], 14
CCC(=O)N(C)C[C@@H]1Oc2ncc(C#CC(C)C)cc2C(=O)N([C@H](C)CO)C[C@@H]1C
→ 23[16.7 µM], 12
COc1ccc(C#Cc2cnc3c(c2)C(=O)N([C@@H](C)CO)C[C@@H](C)[C@H](CN(C)C(C)=O)O3)cc1
→ -8[16.7 µM], 12

Laid out differently: four of the compounds above.
C[C@@H]1CCCCO[C@@H](CN(C)S(C)(=O)=O)[C@@H](C)CN([C@@H](C)CO)C(=O)c2cc(NS(C)(=O)=O)ccc2O1
  HIV Env fusion: 5[16.7 µM]
  Yeast UUG start: 13
Cc1noc(C)c1NC(=O)Nc1ccc2c(c1)C(=O)N([C@H](C)CO)C[C@H](C)[C@@H](CN(C)C(=O)C1CCCCC1)OCCCC[C@H](C)O2
  HIV Env fusion: 11[16.7 µM]
  Yeast UUG start: 4
O=C(C[C@H]1C[C@@H]2c3cc(NC(=O)Nc4ccc(F)cc4)ccc3O[C@@H]2[C@H](CO)O1)NC1CCCC1
  HIV Env fusion: 15[16.7 µM]
  Yeast UUG start: 5
C[C@@H]1CN([C@@H](C)CO)C(=O)c2cc(-c3cncnc3)cnc2O[C@@H]1CN(C)Cc1ccc(F)cc1
  HIV Env fusion: -18[16.7 µM]
  Yeast UUG start: -2

(list continues)
Second line of a record: HIV Env fusion, Yeast UUG start
Cc1ccc(S(=O)(=O)N(C)C[C@@H]2Oc3c(NC(=O)Nc4ccccc4)cccc3C(=O)N([C@@H](C)CO)C[C@H]2C)cc1
→ -14[16.7 µM], 8
Cc1ccc(S(=O)(=O)Nc2ccc3c(c2)C(=O)N([C@@H](C)CO)C[C@H](C)[C@H](CN(C)C(=O)NC(C)C)O3)cc1
→ 20[16.7 µM], -2
C[C@H](CO)N1C[C@H](C)[C@@H](CN(C)C)Oc2ncc(/C=C/c3ccccc3)cc2C1=O
→ 6[16.7 µM], 4
CCCC#Cc1cnc2c(c1)C(=O)N([C@H](C)CO)C[C@H](C)[C@H](CN(C)C(=O)c1cnccn1)O2
→ -7[16.7 µM], 7
CO[C@@H]1CN(C)C(=O)c2ccc(NS(C)(=O)=O)cc2OC[C@H](C)N(C(=O)CN(C)C)C[C@@H]1C
→ -8[16.7 µM], 4
CN1CCN(C(=O)C[C@H]2C[C@@H]3c4cc(NC(=O)NC5CCCCC5)ccc4O[C@@H]3[C@@H](CO)O2)CC1
→ 5[16.7 µM], 12
C[C@H]1CCCCO[C@H](CN(C)Cc2ccc(C(=O)O)cc2)[C@@H](C)CN([C@@H](C)CO)C(=O)c2cc(NC(=O)Nc3ccc4c(c3)OCO4)ccc2O1
→ -4[16.7 µM], 8
C[C@@H]1CN([C@H](C)CO)C(=O)Cc2cc(NC(=O)c3ccncc3)ccc2O[C@H]1CN(C)Cc1ccc2c(c1)OCO2
→ 13[16.7 µM], -14
C[C@H]1CN([C@@H](C)CO)C(=O)c2cc(NC(=O)Nc3ccc(F)cc3)ccc2O[C@@H]1CN(C)Cc1ccncc1
→ -2[16.7 µM], -4
COc1ccccc1NC(=O)N[C@@H]1C=C[C@@H](CC(=O)N[C@@H](C)c2ccccc2)O[C@@H]1CO
→ -27[16.7 µM], 3
CCCN1C[C@H](C)[C@@H](OC)CN(C)C(=O)c2cc(NC(=O)C3CCOCC3)ccc2OC[C@@H]1C
→ 0[16.7 µM], 19
COc1cccc(NC(=O)N(C)C[C@H]2Oc3cc(C#Cc4ccccc4)ccc3S(=O)(=O)N([C@H](C)CO)C[C@@H]2C)c1
→ -20[16.7 µM], -8
COC(=O)C[C@H]1CC[C@@H]2[C@@H](COc3ccc(NC(=O)Nc4ccc(C#N)cc4)cc3C(=O)N2C)O1
→ 15[16.7 µM], -15
COc1ccc(NC(=O)Nc2ccc3c(c2)C(=O)N([C@@H](C)CO)C[C@H](C)[C@H](CN(C)C(=O)Nc2ccc(OC)cc2)OCCCC[C@H](C)O3)cc1
→ -6[16.7 µM], 22
C/C=C/c1ccc2c(c1)O[C@@H](CN(C)C(=O)Cc1ccccc1)[C@@H](C)CN([C@H](C)CO)S2(=O)=O
→ 19[16.7 µM], 9
C[C@H]1CN([C@@H](C)CO)C(=O)c2cccc(N(C)C)c2O[C@@H]1CN(C)S(=O)(=O)c1cccs1
→ -5[16.7 µM], -4
C[C@H]1CCCCO[C@@H](CN(C)C(=O)Nc2ccc3c(c2)OCO3)[C@@H](C)CN([C@@H](C)CO)C(=O)c2cc(NS(C)(=O)=O)ccc2O1
→ 3[16.7 µM], -4
C[C@@H]1CN([C@H](C)CO)C(=O)c2cc(NS(=O)(=O)c3ccc(Cl)cc3)ccc2O[C@@H](C)CCCCO[C@H]1CN(C)Cc1ccc2c(c1)OCO2
→ -11&18[16.7 µM], 0&-2
